From PubChem
eIF4H inh – inhibitors of RNA binding by human eIF4H; Q15056; actives 0.94% (n = 290,000); AID 2012; inhibition, % at 35 µM; eIF4H fluorescence polarization binding assay;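 active = 50% or more with normal probe brightness, or confirmed in later tests; inconclusive = above 50% with abnormal brightness, or retests that disagree; inactive = below 50% or failed in later tests; about a fifth of its hits are not listed in these tables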;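 note: calls also rest on retests at 20 µM and on dose response follow-up; 0% = protein and probe with vehicle and 100% = probe without protein; strong numbers were not always called active; many hits fall short of the cut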
Yeast UUG start – yeast start codon fidelity modulation; activity score, % at 18.7 µM; S. cerevisiae UUG-firefly luciferase reporter, luminescence/redox ratio; actives 0.13% (n = 350,000);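 active = replicate mean at a twofold rise or more, about +100% in these data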;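 note: firefly luciferase made from a UUG start codon reports start codon fidelity; reporter light over untreated wells divided by growth signal over untreated wells; some hits fall short of that in this replicate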
Rce1 inh – blocks yeast Ras-converting enzyme. Q03530. yeast membranes, quenched prenylated peptide cleavage fluorescence. calls only. actives 0.27% (n = 290,000). AID 2563;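 active = fall in fluorescence gain of 50% or more versus controls, with final raw signal at or below 3038400; inconclusive = same 50% fall but final raw signal above 3038400; inactive = fall in fluorescence gain under 50%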;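 note: plate controls were neutral control wells for no effect and wells lacking membranes for full effect; tested at 10 µM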
Target sequence (Q03530 whole entry, looked up): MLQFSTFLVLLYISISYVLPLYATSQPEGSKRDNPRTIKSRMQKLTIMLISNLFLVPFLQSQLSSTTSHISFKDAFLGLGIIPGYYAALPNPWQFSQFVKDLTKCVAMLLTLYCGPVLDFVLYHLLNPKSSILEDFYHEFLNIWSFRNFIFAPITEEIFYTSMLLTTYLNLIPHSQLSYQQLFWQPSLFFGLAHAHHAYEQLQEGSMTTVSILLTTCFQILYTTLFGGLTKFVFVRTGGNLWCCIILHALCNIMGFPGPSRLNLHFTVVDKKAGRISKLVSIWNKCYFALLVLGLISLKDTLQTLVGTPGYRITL
MT1-MMP act inh – MT1-MMP (human) activation inhibition; P50281; HT1080 RFP-PRO-GFP cells, GFP/RFP ratio fluorescence, overnight; percent of plate control window, DMSO zero; GFP/RFP ratio change, % at 20 µM; actives 0.061% (n = 360,000); AID 651647;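 active = GFP/RFP ratio change of at least 30% with cell ATP level not reduced by more than half and red fluorescence within 50% of control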; note: strong numbers were not always called active
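Test system: HT1080 RFP-PRO-GFP cells; Benchmarks: DMSO and RFP-L50D-GFP cell wells; Timing: cells overnight before dosing, compound overnight, 37 °C, 5% CO2; Compound: one 20 µM compound dose with 1% DMSO; Read-out: GFP/RFP fluorescence ratio.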
PABP polyA inh – blocks human PABP binding to poly(A) RNA | AID 2014 | P11940 | fluorescence polarization | actives 1% (n = 290,000) | inhibition, % at 35 µM;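 active = 50% or more with normal probe brightness, or confirmed in later tests; inconclusive = above 50% with abnormal brightness, or retests that disagree; inactive = below 50% or failed in later tests; about a fifth of its hits are not listed in these tables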;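 note: calls also rest on retests at 20 µM and on dose response follow-up; controls were probe without protein and protein plus probe with vehicle; some compounds called inactive have numbers as strong as hits; many hits fall short of the cut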
Target sequence (P11940 whole entry, looked up): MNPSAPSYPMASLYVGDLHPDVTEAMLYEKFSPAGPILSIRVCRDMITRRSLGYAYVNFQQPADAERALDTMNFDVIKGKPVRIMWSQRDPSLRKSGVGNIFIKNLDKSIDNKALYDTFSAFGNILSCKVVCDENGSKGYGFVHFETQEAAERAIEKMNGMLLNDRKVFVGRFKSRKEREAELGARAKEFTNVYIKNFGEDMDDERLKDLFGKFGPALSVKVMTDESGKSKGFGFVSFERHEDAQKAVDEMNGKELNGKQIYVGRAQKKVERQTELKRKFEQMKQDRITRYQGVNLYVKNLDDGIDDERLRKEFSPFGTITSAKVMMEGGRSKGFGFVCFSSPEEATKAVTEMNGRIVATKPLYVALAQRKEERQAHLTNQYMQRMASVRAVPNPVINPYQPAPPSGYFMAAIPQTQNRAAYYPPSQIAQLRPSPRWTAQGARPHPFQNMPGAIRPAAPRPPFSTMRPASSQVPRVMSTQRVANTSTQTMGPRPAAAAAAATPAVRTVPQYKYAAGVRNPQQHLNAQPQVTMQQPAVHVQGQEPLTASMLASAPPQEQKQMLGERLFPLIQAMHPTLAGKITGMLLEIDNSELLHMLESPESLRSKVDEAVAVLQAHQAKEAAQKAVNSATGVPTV
CSC inhib – blocks cancer stem cells; cancer stem cell-like cells viability, luminescence; inhibition, % at 7.5 µM; actives 1.1% (n = 300,000);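 active = mean at 75% or more and at least half the replicates too; inconclusive = mean and replicates disagree; tested in HMLE shEcad cells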;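 note: 0% = median of negative and 100% = median of positive control wells; the first replicate is given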
HIV Env fusion – inhibitors of HIV Env-mediated cell fusion | HeLa-JRFL Env/CEM21 cell fusion, luciferase | actives 1.1% (n = 360,000) | inhibition, % at 12.3 µM | AID 651610;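 active = mean replicate inhibition score of at least 50 and every replicate individually at or above 50; inconclusive = only one of the two criteria met; inactive = mean below 50 and not all replicates reaching 50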;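 note: 0% = plate neutral controls and 100% = maraviroc near 300 nM; one replicate is shown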
eIF4H inh retest – also measured in eIF4H inh; calls as there; inhibition, %; compound at 20 µM; confirmation average;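 mean of two retest wells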
PABP polyA inh retest – recorded beside PABP polyA inh, whose call it bears; inhibition, %; compound at 20 µM; confirmation repeats;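 mean of two retest wells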
MT1-MMP act inh RFP – recorded beside MT1-MMP act inh, whose call it bears; RFP signal change, %; measured here: RFP expression control read;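 0 = vehicle wells; hits needed this value within 50% of zero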
Active calls of the source: *; i = inactive; u = inconclusive; x = no result given.

SMILES	eIF4H inh	Yeast UUG start	Rce1 inh	MT1-MMP act inh	MT1-MMP act inh RFP	PABP polyA inh	CSC inhib	HIV Env fusion	others
CC(=O)Nc1cccc(Oc2ncnc3scc(-c4ccc(C(C)C)cc4)c23)c1	6	-10	i	-3	-7	-1	44	21
O=C(CC[C@H]1O[C@@H](n2ccc(=O)[nH]c2=O)[C@H](O)[C@@H]1O)N[C@H](Cc1ccccc1)C(=O)NC1CCCCC1	x	1	x	1	5	x	x	6
COc1ccc(C(=O)Nc2cc(C(F)(F)F)ccc2-n2cnc3ccccc32)cc1	4	-20	i	8	2	-1	5	-12
COC(=O)c1cccc(NS(C)(=O)=O)c1C	10	-3	i	-3	5	-4	-2	-5
CCOC(=O)c1cc2c(n(-c3ccc(C)cc3)c1=O)CCCC2=O	3	-8	i	-8	5	-5	6	x
Cn1cc(C(=O)c2ccc(Cl)cc2Cl)cc1C(=O)N/N=C(\N)COc1cccc(C(F)(F)F)c1	11	-20	i	-3	-8	-1	36	x
COC(=O)c1ccccc1NC(=O)c1ccc(NC(=O)C2CCCO2)cc1 (stereo not given)	-13	-5	i	-4	1	5	3	-17
O=C(Nc1ccc(NC(=O)c2ccco2)nc1)c1ccco1	9	x	i	-2	-4	9	-6	16
C[C@@H]1CN(Cc2nc(Cc3ccccc3F)no2)C[C@H](C)O1	1	x	i	3	0	0	7	2
CCOC(=O)C1CCN(S(=O)(=O)c2c(C)[nH]c(C)c2C(=O)N2CCCCC2)CC1	1	18	i	1	1	3	-22	1
CCOC(=O)/C(C#N)=C/c1cccc(C)c1	-13	-16	i	0	3	22	2	4
Cc1cc(-c2n[nH]c(=S)n2/N=C/C(Cl)=C/c2ccccc2)n[nH]1	-8	-14	i	-4	-1	-11	0	-35
O=[N+]([O-])c1ccccc1S(=O)(=O)Nc1cccnc1	-9	6	i	-2	3	11	-10	-30
CC(C)(C)OC(=O)NCc1nc(N)n[nH]1	0	-16	i	1	3	-6	-10	x
Cc1cc(C)cc(N(CCC#N)C(=O)CSc2nc3nc(C)cc(C)n3n2)c1	-12	-12	i	2	3	-4	-7	x
COc1ccc2oc(C(=O)N(C)Cc3ccc4c(c3)OCCO4)c(C)c2c1	x	22	i	2	0	x	-1	-2
Cc1cc(C(=O)CN2C(=O)c3ccccc3C2=O)c(C)n1Cc1cccs1	24	-3	i	-2	-2	-2	-12	x
CC(C)C(NC(=O)OCc1ccccc1)C(=O)OCC(=O)N1CCCCC1 (stereo not given)	0	-35	i	3	0	-1	-1	x
CCN1C[C@@H]2[C@@H]3C(=O)N(Cc4ccccc4)C(=O)[C@@H]3[C@](Cc3ccccc3)(C1=O)N2C(=O)c1ccc(Cl)c(Cl)c1	x	0	x	-7	-3	x	x	48
OCCCn1c(C(CO)Nc2nc(-c3ccc(Cl)cc3)cs2)nc2ccccc21 (stereo not given)	x	-17	i	8	0	x	9	-12
CCOC(=O)C1=C(O)/C(=C/c2cn(CC(=O)NCC3CCCO3)c3ccccc23)SC1=Nc1ccc(C)cc1 (stereo not given)	x	-1	x	-134	-3	x	76*	x
O=C(NC1=NCCS1)c1sc2cc(Cl)cc(Cl)c2c1Cl	10	-22	i	4	-2	2	-3	-69
CC(C)CN(C(=O)COC(=O)CNC(=O)c1ccccc1F)C1CCS(=O)(=O)C1 (stereo not given)	0	x	i	-3	2	90*	x	-23	eIF4H inh retest=-4;PABP polyA inh retest=65*
Cc1ccc(C(=O)Nc2ccc(Cl)cn2)cc1S(=O)(=O)N1CCOCC1	3	-10	i	4	2	6	-6	-2
COC(=O)C1CC(=O)N(Cc2ccccc2)C1 (stereo not given)	3	x	i	2	4	-1	5	-1
COc1ccc(-n2ccnc2CN2CCCC(CO)(Cc3cccc(OC)c3)C2)cc1 (stereo not given)	7	x	i	-4	-3	-10	-5	5
CCc1nc2ccc(C(=O)N3CCNC(=O)C3)cn2c1N(C)CCC(C)C	x	-12	x	0	3	x	x	7
CSc1nc(C)cc(/C=C\c2ccccc2)c1C#N	-2	-19	i	-4	0	2	x	-25
C=C1C(C(=O)N2CCN(C)CC2)C1C(=O)N1CCN(C)CC1 (stereo not given)	-9	-11	i	7	5	10	1	x
O=C1C2C3CC(C(Br)C3Br)C2C(=O)N1c1nccs1 (stereo not given)	x	5	i	0	-1	x	-11	2
O=S(=O)(Nc1ccc2oc(-c3ccccc3)nc2c1)c1ccccc1	3	-11	i	0	-3	-6	8	x
CC(=O)NCCCc1c[nH]c2ccc(Cl)cc12	9	-14	i	5	5	-11	x	-29
O=S(=O)(NC1CCCC1)c1ccc(S(=O)(=O)NC2CCCC2)cc1	-5	-15	i	-3	-3	-8	-9	-64
O=C(NC1(C(=O)NC2CCCC2)CCCCC1)c1ccc2c(c1)OCO2	-2	-18	i	-11	-1	5	3	-19
CCOC(=O)C(C)Oc1cccc2c(=O)n(CC(=O)N3CCc4ccccc43)ccc12 (stereo not given)	-10	-8	i	2	-6	-14	-4	-11
COc1cccc(CN2C[C@]34C=C[C@@H](C[C@@H]3S2(=O)=O)O4)c1	0	-22	i	0	-3	-2	-6	-2
COc1ccc(-c2ccc(C#N)c(OC(=O)c3c(Cl)cccc3Cl)n2)cc1	-2	-15	i	-1	-7	-1	46	x
Cc1cccc(/C=N/NC(=O)c2cc(Br)ccc2OCc2ccccc2)n1	3	-8	i	-2	-1	4	2	-2
CCCCN1CCC(CN2C(=O)C(=O)NC[C@@H]2Cc2ccccc2)CC1	x	-10	x	1	2	x	x	-24
Nc1ccc(C(=O)OCc2nc3ccccc3s2)cc1	-8	x	i	2	1	-2	-8	-18
CCOc1cc(C#N)c(NC(=O)c2cccnc2)cc1OCC	-2	x	i	-7	-15	-12	35	x
O=C(O)CN1C(=O)/C(=C2\C(=O)N(Cc3ccccc3Cl)c3ccccc32)SC1=S	21	-14	i	2	2	18	4	4
Cc1[nH]n(-c2ccccc2)c(=O)c1C1(C(F)(F)F)C(=O)N(c2ccccc2)C2=C1C(=O)CC(C)(C)C2 (stereo not given)	12	-6	i	1	1	-2	-12	-15
CCOC(=O)Cc1csc(SCc2nc3ccccc3c(=O)[nH]2)n1	-4	-3	i	4	5	3	5	-40
COc1cc(OC)cc(C(=O)NCC2CCCN(C(=O)c3csc(C(C)C)n3)C2)c1 (stereo not given)	0	-18	i	-2	-1	1	-8	-29
O=C(CSc1nnc(-c2cccnc2)n1CCN1CCCCC1)Nc1cccc(Cl)c1	-2	x	i	-3	3	12	5	18
COCCNC(=O)C1CC2Cn3c(nc4cc(Cl)c(Cl)cc43)C2N1C (stereo not given)	-8	-8	i	9	0	8	-16	28
Cc1cccc(NC(=O)c2nc[nH]c2C(=O)N[C@H](C)c2ccccc2)c1	x	-8	x	0	-1	x	u	-8
O=C(NCCC(=O)N1CCN(c2ccc(F)cc2)CC1)c1ccco1	x	-10	x	3	0	x	x	-285
CNC(=O)NC(=O)COC(=O)c1n[nH]c2ccccc12	-12	-17	x	-2	2	-5	1	15
COc1ccc(NC(=O)COC(=O)CCCc2c[nH]c3ccccc23)cc1OC	-6	x	i	0	6	-1	2	x
COc1ccc(Cl)cc1Cn1c(C)c(C(=O)NCc2ccc(C#N)cc2)sc1=O	x	-10	x	-1	-14	x	x	-13
COc1ccc(NC(=O)CN(C)C(=O)c2ccc(S(=O)(=O)Nc3ccccc3C)cc2)cc1	x	3	x	0	4	x	x	-9
Cc1ccc(C(=O)CSc2nc(C(C)C)nc3ccccc23)cc1	-1	-17	i	2	3	-1	50	-17
CCOc1ccc(-c2ccc(C=O)o2)c([N+](=O)[O-])c1	-5	3	i	-4	0	-3	-11	-36
CCN(Cc1ccccc1)C(=O)CCc1nc(-c2ccc(C)cc2)no1	-7	5	i	13	-11	-4	2	x
CC(=O)C1=C(O)C(=O)N(Cc2cccnc2)C1c1ccccc1Cl (stereo not given)	-14	-22	i	10	7	20	0	x
N#Cc1ccc(Oc2ncccn2)cc1	x	x	i	1	3	x	4	-19
CC1=NOC(=O)/C1=C\c1ccc(-c2ccc(Br)cc2)o1	18	x	i	-18	2	-6	x	-265
O=C(CSc1nc2cc(C(=O)O)ccc2c(=O)n1-c1ccc(F)cc1)Nc1ccc(F)c(F)c1F	-8	-6	i	2	3	1	2	2
(list continues)
SMILES	eIF4H inh	Yeast UUG start	Rce1 inh	MT1-MMP act inh	MT1-MMP act inh RFP	PABP polyA inh	CSC inhib	HIV Env fusion	others
COCCn1c(Br)nc2c1c(=O)n(C)c(=O)n2C	-11	x	i	2	7	-2	-10	-3
CC(OC(=O)Cc1ccc(F)cc1)C(=O)NCc1ccc2c(c1)OCO2 (stereo not given)	x	-14	i	0	2	x	5	-5
CCCCc1cc(=O)oc2c(C)c(OCC(=O)NCc3ccccn3)ccc12	-11	-21	i	-2	-2	-6	13	-3
CN(CC(=O)Nc1ccc(F)c(F)c1F)C(=O)c1nn(Cc2ccccc2)c(=O)c2ccccc12	x	-5	x	-4	-1	x	-6	x
CCOc1ccc(S(=O)(=O)Nc2ccc(C(=O)N3CC(C)OC(C)C3)cc2)cc1 (stereo not given)	x	-2	i	-1	0	x	-5	-154
CCNC(=O)C1(C)CCN(Cc2ccc(C(=O)OCC)o2)C1 (stereo not given)	x	-12	x	-5	-16	x	x	0
CCCCn1c(Cc2ccccc2)nnc1SCC(=O)Nc1cc(C)on1	-9	-8	i	-1	2	-8	2	22
S=C(Nc1ccc2cn[nH]c2c1)Nc1ccc(Cl)cc1Cl	0	-16	i	0	-1	12	0	1
Cc1cc(C)cc(NC(=S)NC2CC3CCCC(C2)N3C2CCCC2)c1 (stereo not given)	-8	x	i	1	7	0	4	-7
Cc1ccc(SCC(=O)NNC(=O)C2CCCCC2)cc1	0	3	i	3	3	2	-13	-3
O=C(c1ccc(-c2ccccc2)cc1)N1CCN(c2ccccn2)CC1	1	4	i	-1	1	-1	6	9
CC(=O)c1cccc(NC(=O)NC(C)c2ccc3c(c2)OCO3)c1 (stereo not given)	2	-13	i	-3	-5	-2	0	-1
COc1ccc(NC(C)C(=O)Nc2ccc(C#N)cc2)cc1Cl (stereo not given)	2	-4	i	6	2	1	2	14
Cc1cc(-c2nnc(SCC(=O)Nc3nc(-c4ccccc4)cs3)o2)no1	37	-19	i	9	8	6	-8	-60
Cc1nc(-c2coc3cc(OCC(=O)O)ccc3c2=O)cs1	9	-22	i	2	-2	-8	x	16
CCCCCNC(=O)C(=O)C1C(=O)Nc2ccccc21 (stereo not given)	-10	11	i	3	7	10	-14	3
CSc1nsc(SCC(=O)Nc2ccc(F)cc2)n1	1	4	i	1	2	3	x	1
OCC1(CCc2ccccc2)CCN(Cc2ccc3nsnc3c2)CC1	-4	x	i	-4	-1	-1	-16	9

4 structures from above, arranged by molar mass, low to high:
SMILES	eIF4H inh	Yeast UUG start	Rce1 inh	MT1-MMP act inh	MT1-MMP act inh RFP	PABP polyA inh	CSC inhib	HIV Env fusion	others
CCCCCNC(=O)C(=O)C1C(=O)Nc2ccccc21 (stereo not given)	-10	11	i	3	7	10	-14	3
Cc1nc(-c2coc3cc(OCC(=O)O)ccc3c2=O)cs1	9	-22	i	2	-2	-8	x	16
CCOc1ccc(S(=O)(=O)Nc2ccc(C(=O)N3CC(C)OC(C)C3)cc2)cc1 (stereo not given)	x	-2	i	-1	0	x	-5	-154
CN(CC(=O)Nc1ccc(F)c(F)c1F)C(=O)c1nn(Cc2ccccc2)c(=O)c2ccccc12	x	-5	x	-4	-1	x	-6	x

This is a subset, so the mix of outcomes need not match the whole.
